Screening data as filed in PubChem.
Vif A3G: HIV-1 Vif–A3G interaction blockers – biochemical, TR-FRET, GST-Vif 1-94, biotin-A3G peptide, dose response retest, primary screen (AID 1117319); TR-FRET GST-Vif / biotin-A3G peptide binding; higher % means a stronger effect; test concentration not given here; strong numbers were not always called active; one-dose inhibition, %; IC50 in µM for titrated hits; 0.57% of 260,000 active;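 active = above the screen mean plus three standard deviations and confirmed in dose response; inconclusive = results disagree or hit not tested in dose response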;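 note: Vif residues 1-94 fused to GST binding biotinylated APOBEC3G peptide 110-148; 0% = full assay without inhibitor and 100% = GST in place of GST-Vif; retest series ran down from 100 µM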
E coli growth: E. coli growth inhibition | OD600 absorbance (concentration not given with the values) | 0.21% of 330,000 active | AID 1053175 | Escherichia coli growth, OD600, 23 h; stronger effect = lower value;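 active = OD600 absorbance below the run mean of sample wells minus 3.6 SD, in any replicate, cut at about 0.56 in these data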;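 note: stock transfer was 300 nL into about 60 µL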
ALR H2O2 inh: human ALR oxidase inhibition via reduced H2O2; P55789; purified ALR, DTT oxidation, H2O2 HRP-luminol luminescence; inhibition, % (test concentration not listed); 3.8% of 290,000 active;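 active = mean and each replicate at 75% or more; inconclusive = only one of the two met; inactive = neither met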;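 note: stock transfer was 7.5 nL into about 7.5 µL; 0% = neutral wells and 100% = wells with inactivated enzyme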
Target sequence (P55789 whole entry, looked up): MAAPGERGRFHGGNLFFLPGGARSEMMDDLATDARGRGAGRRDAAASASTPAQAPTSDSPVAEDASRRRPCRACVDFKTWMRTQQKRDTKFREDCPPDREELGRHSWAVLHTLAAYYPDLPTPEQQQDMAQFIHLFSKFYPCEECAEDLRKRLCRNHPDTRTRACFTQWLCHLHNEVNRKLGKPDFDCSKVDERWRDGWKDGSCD
FGF22 binding: binders of recombinant human FGF22 by thermal shift; Q9HCT0; SYPRO orange fluorescence; percent of sucrose octasulfate shift, DMSO zero; calls only at 9.99 µM; 1.5% of 340,000 active;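 active = melting point raised past a set limit in the mean and every replicate; inconclusive = no clear call; three in four hits are not shown here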
Target sequence (Q9HCT0 whole entry, looked up): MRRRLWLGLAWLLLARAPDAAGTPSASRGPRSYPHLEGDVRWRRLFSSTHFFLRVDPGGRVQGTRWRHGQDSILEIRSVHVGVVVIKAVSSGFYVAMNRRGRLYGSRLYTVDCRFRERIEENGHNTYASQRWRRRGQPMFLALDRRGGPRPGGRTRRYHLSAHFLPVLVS
AF4-AF9 inh: inhibitors of human MLL-AF4/AF9 interaction; AlphaScreen, biotin-AF4 peptide binding to FLAG-AF9; inhibition, % at 10 µM; 0.47% of 350,000 active; AID 651704;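 active = every replicate reaching a set inhibition limit, whatever the replicate mean, cut at about 25% in these data; inconclusive = mean inhibition reaches that limit but some replicates miss it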;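 note: 0% = plate neutral control median and 100% = total signal loss; the record names both 10 and 1 µM as test concentration; the first replicate is given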
Target sequence (P42568 whole entry, looked up): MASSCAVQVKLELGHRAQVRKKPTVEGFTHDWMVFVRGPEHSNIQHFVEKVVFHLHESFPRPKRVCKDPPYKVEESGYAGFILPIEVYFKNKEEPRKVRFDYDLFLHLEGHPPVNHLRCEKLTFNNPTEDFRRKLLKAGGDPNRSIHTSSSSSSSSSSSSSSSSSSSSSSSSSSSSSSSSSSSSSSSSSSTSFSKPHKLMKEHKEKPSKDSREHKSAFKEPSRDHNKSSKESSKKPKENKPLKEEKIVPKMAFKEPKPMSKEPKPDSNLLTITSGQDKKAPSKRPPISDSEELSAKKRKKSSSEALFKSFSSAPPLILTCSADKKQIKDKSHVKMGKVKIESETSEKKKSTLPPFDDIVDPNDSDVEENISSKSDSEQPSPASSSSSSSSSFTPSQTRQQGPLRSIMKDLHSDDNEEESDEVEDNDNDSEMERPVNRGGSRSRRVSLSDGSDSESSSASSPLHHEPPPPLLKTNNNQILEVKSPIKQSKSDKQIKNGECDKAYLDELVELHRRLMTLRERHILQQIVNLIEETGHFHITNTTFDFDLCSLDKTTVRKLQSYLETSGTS
Ecoli rRNA inh: selective bacterial rRNA inhibition in E. coli; E. coli WT GFP vs humanized-ribosome RFP mutants, fluorescence, 24 h; stronger effect = lower value; DMSO median 0, no signal -100; GFP signal change (wild-type ribosome), % (no concentration beside the values); 1.6% of 350,000 active; AID 720706;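 active = significant combined selectivity score with lowered wild-type GFP, culture density cut under 30%, mutant RFP and density less affected; inactive = any of these conditions unmet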; note: one replicate is shown; some compounds called inactive have numbers as strong as hits
HNF4A DNA FP: change in binding of human HNF4 alpha to DNA | 0.3% of 360,000 active | P41235 | HNF4a-FITC DNA binding, fluorescence polarization, 1 h | activity change, % at 10 µM; in the data active = activity change above about 30%, passing the limit was not always enough;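 note: controls were the assay level and a saturating level of protein; the project sought stronger binding though the title names inhibitors; some compounds called inactive have numbers as strong as hits; positive values seem to mean higher polarization but the record does not say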
Ecoli rRNA inh OD600: also measured in Ecoli rRNA inh; calls as there; OD600 change, %; measured here: OD600 growth;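 optical density of the mix in the first replicate; 0 = DMSO median and -100 = no signal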
Ecoli rRNA inh RFP: recorded beside Ecoli rRNA inh, whose call it bears; RFP signal change, %; measured here: RFP humanized mutant strains;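 first replicate; 0 = DMSO median and -100 = no signal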
Starred values were filed as active, the others as inactive; i = inactive; ? = inconclusive; . = no result given; & = joins results of further samples. This is a subset; count on the stated rates, not on these rows.

SMILES	Vif A3G	E coli growth	ALR H2O2 inh	FGF22 binding	AF4-AF9 inh	Ecoli rRNA inh	Ecoli rRNA inh OD600	Ecoli rRNA inh RFP	HNF4A DNA FP
CCN(CC)S(=O)(=O)c1ccc2oc(C(=O)NCC3COc4ccccc4O3)c(C)c2c1 (configuration not stated)	16.1%	0.702	-5.7	.	.	.	.	.	1.7
Cc1ccc(/C=N/n2c(C3CCCCC3)n[nH]c2=S)o1	0.0%	.	96.7*	i	-11.1	11.9	9.2	1.1	-1.0
COc1cccc(NS(=O)(=O)c2ccc3c(c2)CC(=O)N3)c1	.	0.702	-2.9	i	-5.9	-0.2	2.1	6.9	-0.6
CCCN(C)C[C@H]1OCCCC[C@@H](C)Oc2ccc(NS(=O)(=O)c3ccc(C)cc3)cc2C(=O)N([C@@H](C)CO)C[C@H]1C	.	.	.	i	-1.3	2.4	-5.4	2.7	.
CCCN1C[C@@H](C)[C@@H](OC)CN(C)C(=O)c2cc(NC(=O)Nc3ccccc3F)ccc2OC[C@H]1C	.	.	.	i	-10.3	3.6	1.1	-1.5	.
COc1cccc(C(=O)Nc2ccc3c(c2)C(=O)N(C)[C@H]2CC[C@@H](CC(=O)NCCCN4CCOCC4)O[C@H]2CO3)c1	.	.	.	i	1.4	0.2	-3.8	-0.6	.
Cc1noc(C)c1S(=O)(=O)Nc1ccc2c(c1)CC(=O)N([C@H](C)CO)C[C@@H](C)[C@H](CN(C)Cc1ccc(C(=O)O)cc1)O2	.	.	.	i	-3.3	2.6	4.4	-3.4	.
C[C@@H]1CN([C@@H](C)CO)C(=O)c2c(c3ccccc3n2C)-c2ccccc2CO[C@@H]1CN(C)C(=O)CCN(C)C	.	.	.	i	-2.1	0.9	4.0	1.1	.
CSC(=CC(=O)c1ccccc1)SC	0.0%	0.652	1.5	.	.	-1.7	-0.1	-0.2	-1.0
CC(C)NC(=O)Nc1ccc2c(c1)C(=O)N([C@@H](C)CO)C[C@H](C)[C@H](CN(C)C(=O)CCC(F)(F)F)OCCCC[C@@H](C)O2	.	.	.	i	-2.1	1.2	-0.8	-2.2	.
COc1ccc(CNC(=O)CN(Cc2ccco2)C(=O)CNS(=O)(=O)c2ccc(C)cc2)cc1	-3.3%	0.704	.	i	0.7	-8.0	-3.5	4.6	0.1
C[C@@H]1CN([C@H](C)CO)C(=O)Cc2cc(NS(=O)(=O)c3cccs3)ccc2O[C@@H]1CN(C)CC1CC1	.	.	.	i	-2.2	1.8	7.1	-1.8	.
Cc1cccc(Nc2nc3c(S(=O)(=O)c4ccccc4)nnn3c3ccccc23)c1	11.8%	0.735	3.5	i	0.4	17.9	8.8	-0.8	0.2
O=C(COC(=O)c1ccc(S(=O)(=O)NCc2ccco2)cc1)Nc1ccccc1	1.2%	0.723	.	i	-1.4	4.0	-0.2	0.5	1.9
Cc1ccsc1CNC12CC3CC(CC(C3)C1)C2	-1.3%	0.697	.	i	2.2	11.3	1.7	1.6	0.4
COc1ccc(-c2cn(CC[C@H]3CC[C@@H](NC(=O)c4cnccn4)[C@@H](CO)O3)nn2)cc1	.	.	.	i	-0.4	2.1	-0.3	-0.3	.
Cc1cccc(N=C2CCCC2C(=O)Nc2cccc(C)c2C)c1C (configuration not stated)	-7.4%	0.695	.	i	-0.3	2.3	11.7	-1.4	-1.1
NC(=S)N/N=C1\CC(n2nnnc2-c2ccccc2)C2COC1O2 (configuration not stated)	6.9%	.	9.6	i	6.2	2.8	-4.2	1.0	-1.4
O=C(NCCCn1ccnc1)c1noc2c1CCc1ccccc1-2	0.3%	0.736	0.4	.	.	.	.	.	-4.8
CC(=O)c1cccc(NC(=S)NCc2ccco2)c1	-4.8%	0.637	.	i	-0.1	0.9	-3.4	2.8	3.2
COc1ccc(OCCSc2nc(N)cc(=O)[nH]2)cc1	.	0.63	-6.0	i	0.3	-4.8	-6.9	1.5	-0.5
CCN(c1ccc(NC(=O)COC(=O)c2cccs2)cc1)C(C)C	?	0.696	98.8*	.	.	.	.	.	0.2
CNC[C@H]1Oc2ccc(NS(=O)(=O)c3c(C)noc3C)cc2C(=O)N([C@@H](C)CO)C[C@@H]1C	.	.	.	i	-4.9	1.4	14.6	0.3	.
C[C@@H]1CN([C@@H](C)CO)C(=O)Cc2cc(NC(=O)Nc3ccc4c(c3)OCO4)ccc2O[C@H]1CN(C)C(=O)Nc1ccc(C(F)(F)F)cc1	.	.	.	i	9.9	-2.5	9.8	-2.5	.
CCOC(=O)N(C)OC(=O)Nc1ccc(Cl)c(Cl)c1	0.5%	0.658	12.0	.	.	.	.	.	3.5
Later entries
SMILES	Vif A3G	E coli growth	ALR H2O2 inh	FGF22 binding	AF4-AF9 inh	Ecoli rRNA inh	Ecoli rRNA inh OD600	Ecoli rRNA inh RFP	HNF4A DNA FP
COc1ccc(NC(=O)Nc2ccc3c(c2)C(=O)N([C@@H](C)CO)C[C@H](C)[C@H](CN(C)C(=O)Nc2ccccc2)OCCCC[C@@H](C)O3)cc1	.	.	.	i	-11.3	1.7	3.8	-2.8	.
CC(C)C#Cc1ccc([C@@H]2[C@@H](CO)N3CCCCN(C(=O)NC(C)C)C[C@H]23)cc1	.	.	.	i	-2.4	-1.1	5.0	1.2	.
C#Cc1ccc([C@@H]2C=C(C(=O)OCC=C)O[C@H](OCC)[C@H]2CCCO)cc1	.	.	-1.5	i	1.6&0.6	-16.1	-25.4	-10.1	1.3
CCOC(=O)CSc1nnc(CSc2nc(N)c3c(C)c(C)sc3n2)n1-c1ccccc1	.	0.69	-7.8	i	2.8	.	.	.	-3.4
O=C(Nc1ccc(F)cc1)C(c1cccc(F)c1)N1CCN(C(=O)c2ccco2)CC1 (configuration not stated)	.	.	.	i	.	0.2	1.1	2.3	-0.9
COC(=O)C(N)Cc1ccc(OC)c([N+](=O)[O-])c1 (configuration not stated)	12.5%	0.694	-14.1	i	-0.9	-5.8	-20.3	-2.4	9.9
O=C(NCc1ccc(F)cc1)C(c1ccccc1)N(C(=O)c1csnn1)C1CCCC1 (configuration not stated)	.	0.692	.	.	2.6	-2.7	-8.8	1.7	-2.9
COc1cccc(-c2cnc3c(c2)C(=O)N([C@@H](C)CO)C[C@@H](C)[C@@H](CN(C)Cc2ccncc2)O3)c1	.	.	.	i	-2.8	6.2	4.6	2.8	.
COc1cccc(-c2ccc([C@H]3[C@H](CO)N(C(=O)C4CC4)C34CN(C(C)=O)C4)cc2)c1	.	.	.	i	-1.1	0.0	-3.7	0.8	.
O=C(CN1C(=O)NC2NC(=O)NC21)N/N=C/c1ccc(F)cc1 (configuration not stated)	0.9%	.	-0.2	i	-0.8	11.6	12.2	-2.1	1.2
O=C(c1ccccc1-c1nc(-c2ccc(F)cc2)no1)N1CCCC1	4.5%	0.696	.	.	.	.	.	.	6.4
O=C(/C=N/O)NCCCN1CCCCCC1	16.7%	.	0.9	.	.	.	.	.	-1.9
CO[C@@H](CN(C)C(=O)C1CCOCC1)[C@@H](C)CN([C@H](C)CO)S(=O)(=O)c1ccccc1	.	.	.	i	-1.3	-26.3	-39.6	2.4	.
O=C(COC(=O)CCOc1ccccc1)NCc1ccco1	7.5%	0.759	-0.9	.	.	.	.	.	-8.6
c1ccc(C(Cc2nc(-c3ccccn3)no2)c2ccccc2)cc1	-0.7%	0.639	-4.2	.	.	.	.	.	-3.1
CC(CN1CCOCC1)OC(=O)C(C)(c1ccccc1)c1ccccc1 (configuration not stated)	-2.8%	0.682	0.3	.	.	.	.	.	-0.9
O=C(COn1nnc2ccc(S(=O)(=O)N3CCOCC3)cc21)NCCc1ccccc1	.	.	.	.	-11.5	-2.1	-16.2	1.5	-0.1
COc1cc(OC)cc(C(=O)NCC(=O)OC2CCOC2=O)c1 (configuration not stated)	1.7%	0.721	.	.	.	.	.	.	-5.0
Cc1ccc(OCc2cc(C(=O)N(C)Cc3cnn(C)c3)no2)cc1C	.	.	.	i	0.3	5.1	5.3	1.2	-1.5
COc1cc(C(=O)NCC(=O)NCCN2C(=O)S/C(=C\c3ccccc3Cl)C2=O)cc(OC)c1OC	-0.3%	0.699	11.7	i	1.6	0.5	4.0	-0.9	-3.1
COCCCNC(=S)NNC(=O)C1CC1c1ccc(C(C)(C)C)cc1 (configuration not stated)	10.4%	0.707	.	i	0.4	-23.9	-48.9	7.9	-4.4
CCOc1ccc(C(=O)Nc2cc3c(cc2N2CCCC2)n(CC)c(=O)n3CC)cc1OCC	.	0.664	51.6	i	0.4	-1.1	-0.3	0.3	0.5
COc1ccc(CC(N)c2csc(NC(=O)Nc3ccccc3C(C)C)n2)cc1 (configuration not stated)	.	.	.	i	3.2	-50.5	-81.8	-18.4	4.0
O=C1NC[C@H](Cc2ccc(O)cc2)N(C[C@@H]2CCCN2C[C@H](Cc2ccccc2)N2C[C@H](Cc3ccc(O)cc3)N(CCc3ccccc3)C(=O)C2=O)C1=O	.	.	.	i	-0.5	-15.5	-13.2	1.8	-2.0
CCOC(=O)c1c(CN2CCN(C)CC2)n(C)c2cc(Br)c(OC)cc12	-5.0%	0.645	-2.4	.	.	.	.	.	3.8

Single values from the list.
Ecoli rRNA inh with `COc1cccc(-c2cnc3c(c2)C(=O)N([C@@H](C)CO)C[C@@H](C)[C@@H](CN(C)Cc2ccncc2)O3)c1` is entered as 6.2
Vif A3G with `COCCCNC(=S)NNC(=O)C1CC1c1ccc(C(C)(C)C)cc1` (configuration not stated) is entered as 10.4%
ALR H2O2 inh with `CCOC(=O)CSc1nnc(CSc2nc(N)c3c(C)c(C)sc3n2)n1-c1ccccc1` is entered as -7.8

Other entries follow.
SMILES	Vif A3G	E coli growth	ALR H2O2 inh	FGF22 binding	AF4-AF9 inh	Ecoli rRNA inh	Ecoli rRNA inh OD600	Ecoli rRNA inh RFP	HNF4A DNA FP
O=C(CCC1(C(=O)O)CCC(=O)NC1)NCc1ccccc1 (configuration not stated)	5.5%	0.681	-6.3	i	-16.9	0.0	-6.4	-4.7	-0.1
CC1(C)C(=O)OC(c2ccco2)C(C)(C)C1=O (configuration not stated)	-0.2%	0.677	7.8	.	.	.	.	.	0.0
O=C(/C=C/c1cccc([N+](=O)[O-])c1)N(c1ccccn1)c1ccccn1	?	0.721	-6.0	i	2.0	3.8	-1.3	-7.2	-0.1
CCc1cccc(C)c1NC(=O)CN1C(=O)NC(CCc2ccccc2)C1=O (configuration not stated)	1.0%	0.708	0.2	i	-2.0	-5.0	-2.4	-1.9	-0.1
Cc1ccc(CN2CC34C=CC(O3)C(C(=O)NCc3ccc5c(c3)OCO5)C4C2=O)cc1 (configuration not stated)	?	0.713	-2.6	.	.	.	.	.	-0.7
CCC(CC)C(=O)Nc1c2c(nn1-c1ccc(C)cc1)CS(=O)(=O)C2	0.9%	0.65	-1.0	i	-0.5	8.1	7.4	-0.8	-2.6
Cc1cc(Sc2nc(NC(C)C)nc(NC(C)C)n2)nc(Cl)n1	-1.1%	0.702	7.8	i	-3.2	-3.5	2.8	-3.5	-0.2
CCOC(=O)C1(Cc2cccc(F)c2)CCN(CCCn2cccn2)CC1	-6.1%	0.721	0.5	i	-6.7	5.6	-4.4	1.0	1.2
CCn1c(O)c(N=Nc2ccc3ccccc3n2)c2ccccc21	-2.5%	0.678	-2.6	i	7.2	9.6	11.1	-1.7	-3.9
O=C(CNC(=O)Cn1ccc2ccccc2c1=O)NCCCN1CCCCCC1	-4.0%	0.716	4.0	.	.	.	.	.	1.4
CCN(CC)S(=O)(=O)c1cccc(NC(=O)COC(=O)c2cc(=O)c3ccccc3o2)c1	.	0.645	-5.7	i	1.3	8.5	-0.8	2.4	0.2
